Ecoli growth: E. coli growth inhibition, primary screen, OD600. 330,000 tested, 0.21% active. AID 1053175, 2014. Escherichia coli growth, 23 h; stronger effect = lower value. OD600 absorbance (no concentration beside the values);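 active = OD600 absorbance below the run mean of sample wells minus 3.6 SD, in any replicate, cut at about 0.56 in these data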;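 note: stock transfer was 300 nL into about 60 µL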
HNF4A DNA FP: change in binding of human HNF4A to DNA, primary screen, biochemical, fluorescence polarization, FITC-DNA. activity change, % at 10 µM. 360,000 tested, 0.3% active. 1 h. Hepatocyte nuclear factor 4-alpha (Homo sapiens), P41235; in the data active = activity change above about 30%, passing the limit was not always enough;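 note: controls were the assay level and a saturating level of protein; the project sought stronger binding though the title names inhibitors; some compounds called inactive have numbers as strong as hits; positive values seem to mean higher polarization but the record does not say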
UCH37 inh: inhibitors of human UCH37 deubiquitinase, primary screen, biochemical, Ub-AMC cleavage, fluorescence; 330,000 tested, 0.33% active; purified proteasome/UCH37; Ubiquitin carboxyl-terminal hydrolase isozyme L5 (Homo sapiens), Q9Y5K5; inhibition, % (no concentration beside the values); AID 588478, 2011;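 active = mean of two replicates above 20%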;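 note: 0% = compound-free wells with enzyme and 100% = wells lacking proteasome; stock transfer was 100 nL into about 20 µL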
Target sequence (Q9Y5K5 whole entry, looked up): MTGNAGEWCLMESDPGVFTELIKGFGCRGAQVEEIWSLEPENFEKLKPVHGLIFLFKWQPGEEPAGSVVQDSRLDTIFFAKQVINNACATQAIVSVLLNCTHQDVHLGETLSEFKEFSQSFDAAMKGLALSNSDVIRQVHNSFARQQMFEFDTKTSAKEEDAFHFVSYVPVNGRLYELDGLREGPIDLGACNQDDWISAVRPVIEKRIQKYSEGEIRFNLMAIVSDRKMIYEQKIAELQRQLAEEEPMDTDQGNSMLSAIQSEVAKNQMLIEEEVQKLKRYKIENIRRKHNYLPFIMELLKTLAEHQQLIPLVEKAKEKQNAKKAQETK
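Assay system: Proteasome-bound UCH37. Buffer or medium: pH 7.4 Tris-HCl (50 mM) with ovalbumin, ATP-MgCl2, DTT. Incubation: 30 min preincubation with enzyme, 25 min cleavage at room temperature. Measured by: fluorescence, ex 355 nm, em 460 nm. Read-out basis: percent inhibition. Control set: wells without proteasome as full block, compound-free enzyme plus substrate as uninhibited.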
rRNA inh HTS: reduced GFP signal of wild-type E. coli, primary screen, bacterial rRNA inhibitor project, GFP/RFP fluorescence, OD600, single point; E. coli WT GFP vs humanized-ribosome RFP mutants, 24 h; stronger effect = lower value; DMSO median 0, no signal -100; GFP signal change (wild-type ribosome), % (concentration not given with the values); 350,000 tested, 1.6% active; AID 720706, 2013;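 active = significant combined selectivity score with lowered wild-type GFP, culture density cut under 30%, mutant RFP and density less affected; inactive = any of these conditions unmet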; note: one replicate is shown; some compounds called inactive have numbers as strong as hits
FGF22 binding: binders of human FGF22 protein, primary screen, FGF22 synaptogenesis inhibitor project, biophysical, thermal shift, single point. calls only at 9.99 µM. recombinant FGF22 thermal shift, SYPRO orange fluorescence; percent of sucrose octasulfate shift, DMSO zero. 340,000 tested, 1.5% active. AID 651658, 2012;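 active = melting point raised past a set limit in the mean and every replicate; three in four hits are not shown here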
ALR H2O2 inh: inhibitors of human ALR sulfhydryl oxidase, primary screen, biochemical, H2O2 detection, HRP-luminol luminescence, single point. AID 485317, 2010. FAD-linked sulfhydryl oxidase ALR (Homo sapiens), P55789. purified ALR, DTT oxidation. inhibition, % (concentration not given with the values). 290,000 tested, 3.8% active;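 active = mean and each replicate at 75% or more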;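 note: stock transfer was 7.5 nL into about 7.5 µL; 0% = neutral wells and 100% = wells with inactivated enzyme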
Target sequence (P55789 whole entry, looked up): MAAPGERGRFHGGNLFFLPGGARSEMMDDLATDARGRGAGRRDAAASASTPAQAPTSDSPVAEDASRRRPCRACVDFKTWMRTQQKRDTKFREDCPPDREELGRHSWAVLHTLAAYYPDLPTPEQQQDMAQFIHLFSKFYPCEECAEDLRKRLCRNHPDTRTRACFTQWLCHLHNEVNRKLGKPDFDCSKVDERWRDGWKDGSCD
Beta2AR agonist: beta2AR agonists driving receptor internalization, primary screen, cell-based, FAP fluorogen, flow cytometry; 340,000 tested, 0.43% active; response, % (test concentration not listed); Am2.2-beta2AR cells; reference of the scale not given here;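 active = response above a set limit, near 3 SD of response in nonfluorescent compounds, cut at about 42% in these data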;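 note: stock transfer was 100 nL into about 11 µL; a reference agonist was the positive control; negative values mostly stem from fluorescent compounds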
Target sequence (P07550 whole entry, looked up): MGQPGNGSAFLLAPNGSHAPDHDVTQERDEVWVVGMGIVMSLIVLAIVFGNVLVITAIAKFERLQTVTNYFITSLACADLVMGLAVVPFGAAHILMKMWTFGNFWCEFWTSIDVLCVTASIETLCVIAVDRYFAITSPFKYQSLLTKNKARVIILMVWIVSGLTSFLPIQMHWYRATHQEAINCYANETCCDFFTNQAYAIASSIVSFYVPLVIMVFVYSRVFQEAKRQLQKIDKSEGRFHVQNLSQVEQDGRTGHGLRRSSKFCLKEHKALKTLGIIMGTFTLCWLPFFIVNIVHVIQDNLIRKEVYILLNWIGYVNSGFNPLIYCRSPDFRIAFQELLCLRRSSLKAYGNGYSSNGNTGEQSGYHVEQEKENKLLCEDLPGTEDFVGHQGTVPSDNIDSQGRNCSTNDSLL
rRNA inh HTS OD600: further read-out of rRNA inh HTS, marked with its call; OD600 change, %; measured here: OD600 growth;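 optical density of the mix in the first replicate; 0 = DMSO median and -100 = no signal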
rRNA inh HTS RFP: further read-out of rRNA inh HTS, marked with its call; RFP signal change, %; measured here: RFP humanized mutant strains;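 first replicate; 0 = DMSO median and -100 = no signal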
Numbers without * were called inactive; i = inactive; · = no result given.

item	smiles	Ecoli growth	HNF4A DNA FP	UCH37 inh	rRNA inh HTS	rRNA inh HTS OD600	rRNA inh HTS RFP	FGF22 binding	ALR H2O2 inh	Beta2AR agonist
1	Cc1ccc(NC(=O)Cc2ccc(Cl)cc2)cc1S(=O)(=O)N1CCCCCC1	0.735	2.6	0.6	-1.6	-24.2	24.8	i	-6.7	-0.2
2	C=C1CC[C@@H]2[C@](C)(CO)[C@H](O)CC[C@@]2(C)[C@@H]1C/C=C1/C(=O)OCC1O (stereo partly drawn)	·	-1.7	·	·	·	·	i	·	8.0
3	CCC(C)[C@H]1COCCS(=O)(=O)N1Cc1ccc(C)cc1 (stereo partly drawn)	·	-2.9	·	3.6	4.4	0.8	i	3.4	-3.3
4	O=C(O)CC(NC(=O)COc1ccccc1)c1cccc([N+](=O)[O-])c1 (stereo not drawn)	0.68	-0.3	4.9	5.3	3.4	1.9	i	-3.3	1.8
5	COCCNC(=O)/C(C#N)=C/c1c(F)cccc1Cl	0.683	1.4	0.3	4.0	-7.0	0.6	i	-0.2	9.3
6	COCCN(C(=O)COC(=O)c1ccc(Cl)s1)c1c(N)n(Cc2ccccc2)c(=O)[nH]c1=O	0.675	-0.2	1.8	3.7	8.6	-0.1	i	-1.7	-7.8
7	CC(C)C(=O)Nc1sc2c(c1-c1nc3ccccc3[nH]1)CCCC2	0.733	2.5	-30.1	·	·	·	·	13.9	1.2
8	CCOC(=O)c1[nH]c(C)c(C(=O)N2CCN(c3cccc(Cl)c3)CC2)c1C	0.663	0.2	1.8	-22.4	-29.0	12.0	i	-0.9	5.5
9	COc1ccc(-c2nc3c(Cl)cc(C(F)(F)F)cn3c2Cc2cccc(Cl)c2)cc1OC	·	3.9	·	4.9	12.8	16.0	i	·	·
10	Cc1cc(C)nc(N2CCCC(C(=O)NC3CCCC3)C2)n1 (stereo not drawn)	0.731	0.1	-5.6	·	·	·	·	-1.6	2.8
11	CCOc1ccc2oc(C(=O)N3CCN(c4ccccc4OCC)CC3)c(C)c2c1	0.718	0.7	-2.6	-0.4	-0.8	-0.3	i	0.7	19.6
12	Cc1ccc(C(=O)CSc2n[nH]c(-c3ccco3)n2)cc1C	0.632	-3.5	0.8	·	·	·	·	97.4*	-7.2
13	CN(C)C1CN(Cc2cn(Cc3ccc(C(F)(F)F)cc3)nn2)S(=O)(=O)C1 (stereo not drawn)	·	-1.5	·	5.4	13.8	-3.7	i	·	·
14	COc1ccc(C(=O)NCCc2ccccc2F)cc1OC1CCN(C(C)=O)CC1	0.729	-3.1	1.5	-2.2	10.4	-0.6	i	2.7	-1.5
15	COC(=O)[C@H](Cc1ccccc1)N1C/C=C\COc2c(Cl)cc(Cl)cc2S1(=O)=O	0.738	-5.5	1.8	-0.5	-28.4	1.1	i	·	-0.2
16	COc1ccc(NC(=O)C2=NN(c3ccccc3)C(=O)CC2)cn1	0.731	-3.1	5.4	-2.4	2.8	-0.1	i	-69.9	2.6
17	COC(=O)c1ccc2c(=O)n(CCN3CCOCC3)c(SCC(=O)C(C)(C)C)nc2c1	0.748	3.1	-1.0	·	·	·	·	-1.6	2.4
18	O=C(OCC(=O)N1CCN(C(=O)c2ccco2)CC1)c1ccc(Cl)nc1	·	-1.3	·	0.0	0.6	-2.0	i	-2.7	-4.8
19	CCCCN(C=O)c1c(CC)nc2ccc(C(=O)NCCOc3ccc(OC)cc3)cn12	·	4.5	·	-5.9	-6.2	-1.3	i	·	·
20	CCCCNC(=O)c1ccccc1Cl	0.696	0.9	-0.9	·	·	·	·	-7.5	1.9
21	O=C(Nc1ccccc1)c1cc(C2CCCN(C(=O)C/C=C/c3ccccc3)C2)on1 (stereo not drawn)	·	1.5	·	-13.7	-14.5	1.5	i	·	·
22	Cc1ccccc1NC(=O)c1cccc(NC(=O)c2ccco2)c1	0.645	3.0	2.9	-13.2	-11.5	-2.9	i	·	-2.7
23	COC(=O)c1c(-c2c(Cl)cccc2Cl)noc1C(=O)NN	0.714	2.7	5.1	-0.7	-3.3	0.9	i	-5.7	0.1
24	CCN(c1ccccc1)S(=O)(=O)c1ccc(C(=O)Nc2ccncc2)cc1	0.665	4.1	0.3	-2.5	-30.6	-5.9	i	9.9	7.4
25	CC(=O)Nc1ccc(C(=O)N2CCCC(c3cc(C(=O)Nc4ccccc4)no3)C2)cc1 (stereo not drawn)	·	-1.3	·	-4.1	-13.9	-2.6	i	·	·
26	Cc1ccccc1-c1csc(C(O)(c2ccccc2)C(F)(F)F)n1 (stereo not drawn)	·	-2.4	·	-59.5	-80.6	-20.1	i	·	·
27	CCCCNC(=O)c1nn2cc(Br)cnc2c1Br	0.66	·	0.9	-3.6	-2.7	2.9	i	-11.4	·
28	COc1ccc(CCNC(=O)COc2cc(C)cc3oc(=O)c(C)c(C)c23)cc1OC	0.722	0.7	-2.2	·	·	·	i	·	-5.8
29	COc1ccc(C2Nc3ccccc3C(=O)N2NS(=O)(=O)c2ccc(C)cc2)cc1OC (stereo not drawn)	0.636	0.2	-238.6	-2.4	-8.4	-0.7	i	-0.6	2.5
30	CN(C)S(=O)(=O)c1ccc(C(=O)NCC2(N3CCCCC3)CCCCC2)cc1	0.704	0.5	2.6	17.9	10.1	4.4	·	-14.1	-0.8

Next entries:
item	smiles	Ecoli growth	HNF4A DNA FP	UCH37 inh	rRNA inh HTS	rRNA inh HTS OD600	rRNA inh HTS RFP	FGF22 binding	ALR H2O2 inh	Beta2AR agonist
31	CCCn1c(=O)c2[nH]c(-c3ccc(S(=O)(=O)O)cc3)nc2n(CCC)c1=O	0.719	1.9	-486.0	·	·	·	i	-5.5	7.5
32	COc1ccc(OC)c(C(=O)c2ccc(C(=O)O)cc2)c1	0.723	1.0	3.0	·	·	·	·	-1.4	6.4
33	O=C(COC(=O)CNC(=O)c1ccc(Cl)cc1Cl)NC1CCCCC1	0.652	-0.9	1.0	4.4	11.8	2.6	i	-1.4	7.7
34	CC1CCN(C2(O)C(=O)Nc3ccc(Br)cc32)CC1 (stereo not drawn)	0.684	0.7	4.7	-9.5	-1.1	0.7	·	-7.1	6.0
35	O=C(Nc1nncs1)c1cccnc1Cl	0.682	2.0	4.1	·	·	·	·	-5.9	6.4
36	CCCCn1nnnc1C(c1ccccc1)N1CCN(C/C=C/c2ccccc2)CC1 (stereo not drawn)	·	6.5	·	-44.3	-76.3	-15.2	i	·	·
37	COC(=O)c1cccc(NC(=S)NCc2ccco2)c1	0.633	-0.2	1.2	0.1	0.0	-2.5	i	-12.4	4.9
38	CCOc1ccc(NC(=S)N(CCCN2CCOCC2)Cc2cn(C)c3ccccc23)cc1	0.683	-3.2	2.8	-4.1	-4.5	9.9	i	1.9	-0.2
39	Cc1c(NC(=O)C2CC(c3ccc(F)cc3)=NO2)c(=O)n(-c2ccccc2)n1C (stereo not drawn)	0.719	0.0	4.0	5.0	14.3	-2.7	i	-4.8	4.6
40	Cn1c(NC(=O)Cc2cccs2)cc(=O)n(C)c1=O	0.69	1.4	6.0	8.3	15.2	-1.3	i	·	-4.0
41	Cc1cc(Cl)nc2c(C(C)C)cccc12	0.721	-0.2	2.1	16.1	13.4	-0.8	i	0.6	-0.3
42	O=C(NN=Cc1ccc2c(c1)OCO2)c1ccc([N+](=O)[O-])cc1	·	3.4	·	0.3	12.3	0.5	i	·	·
43	CCN(Cc1ccccc1)Cc1ccc(OCc2ccccc2)cc1	0.654	-1.3	5.3	-16.5	-11.1	-3.0	i	0.0	8.7
44	O=C1CCC(C(=O)NCc2ccccc2)N1 (stereo not drawn)	0.684	-0.5	-0.9	16.9	18.6	3.7	i	·	-8.5
45	Cc1ccc(SC(=O)c2c(C)noc2-c2cc(C)on2)cc1	·	2.6	·	19.4	18.4	1.1	i	·	4.7
46	Cc1ccc(CNc2ncnc3ccc(-c4ccoc4C)cc23)o1	·	3.5	·	13.1	13.9	5.7	i	·	·
47	Cc1nc2nc(-c3ccccc3)nn2c(C)c1Cl	0.741	2.1	2.4	·	·	·	·	1.0	-4.4
48	CCn1c(SCc2cccc(C(=O)O)c2)nnc1-c1ccc(Cl)cc1	0.692	-0.7	5.4	10.3	3.7	-1.6	i	0.3	-3.4
49	CCC(=Cc1ccc(CC)cn1)CC	0.679	-0.6	-1.5	5.6	10.9	-1.8	i	33.1	6.9
50	N#Cc1c(Cl)nc(N/N=C/c2ccccc2)c(Cl)c1Cl	·	1.1	·	-54.1	-55.3	-21.3	i	·	-0.6
51	COc1ccccc1-c1nc(C#N)c(N2CCN(c3ccccc3)CC2)o1	0.757	1.3	-5.6	·	·	·	·	-1.2	16.7
52	CC(=O)N1CCc2cc(S(=O)(=O)NCCCN3CCN(Cc4ccccc4)CC3)ccc21	0.769	0.6	-0.9	·	·	·	·	-3.2	-7.9
53	O=C(Nc1nccs1)c1cc(-c2ccccn2)nc2c(Cl)cccc12	0.665	72.5*	-1.3	1.8	2.0	6.9	i	-7.9	3.7
54	COc1ccc(-c2csc(-c3ccc(C(=O)O)cc3)n2)cc1	0.704	3.2	-59.7	-0.4	-1.1	-4.7	·	·	0.4
55	NC(=O)c1ccc(NC(=O)c2ccc3c(c2)CCN3S(=O)(=O)c2ccccc2)cc1	0.676	0.5	3.9	6.4	11.8	2.4	i	-1.1	12.6
56	Cc1nc2ccc(S(=O)(=O)NCC(=O)N3CCN(c4ccccc4)CC3)cc2s1	0.723	-6.9	-3.7	·	·	·	·	32.3	-1.7
57	COc1ccccc1OCCC(=O)OCC(=O)Nc1cc(S(=O)(=O)N2CCOCC2)ccc1Cl	0.719	0.3	3.1	2.5	-3.1	1.4	·	-1.7	-4.0
58	O=C(COC(=O)CCC1CCCC1)Nc1ccc(Cl)cc1F	0.686	-1.6	6.1	·	·	·	·	-2.5	10.0
59	Cc1sc2nc(C(C)C)nc(SCC(=O)N3CCOCC3)c2c1C	0.693	0.8	2.7	-12.3	-16.2	2.8	i	1.9	-8.2
60	Cc1cc(=O)oc2cc(Oc3ccc([N+](=O)[O-])cc3[N+](=O)[O-])ccc12	0.676	1.9	-56.1	·	·	·	·	3.0	-17.2

(next part)
item	smiles	Ecoli growth	HNF4A DNA FP	UCH37 inh	rRNA inh HTS	rRNA inh HTS OD600	rRNA inh HTS RFP	FGF22 binding	ALR H2O2 inh	Beta2AR agonist
61	CCC(c1nnc(SCCNCCO)n1CCN1CCOCC1)N(C)C (stereo not drawn)	0.689	·	-3.1	·	·	·	·	-14.7	·
62	O=C(NCc1cccs1)Nc1ccc(Cl)cc1	0.688	-0.9	6.6	·	·	·	·	3.1	11.3
63	Fc1ccc(NC(=S)N/N=C/c2ccc(F)c(F)c2)c(F)c1	·	3.1	·	3.9	12.6	-0.1	·	-7.4	0.1
64	CC(C)CC(=O)N1CCN(c2ccc([N+](=O)[O-])cc2Cl)CC1	0.727	-1.6	4.5	3.0	1.0	-0.2	i	3.8	-7.3
65	Cn1ccnc1C(=O)c1cccc([N+](=O)[O-])c1	0.667	-4.7	0.6	5.6	-3.6	-8.4	i	-7.2	-1.0
66	CC(C(=O)Nc1ccccc1Br)c1ccc([N+](=O)[O-])cc1 (stereo not drawn)	0.74	-1.0	5.9	2.9	3.9	0.9	i	-16.2	-4.7
67	CCOC(=O)[C@@H]1[C@H]2COc3cc(OC)ccc3[C@H]2N2C(=O)N(c3ccc(C(F)(F)F)cc3)C(=O)[C@@]12C	·	2.7	1.7	-2.1	5.4	11.0	i	·	-2.7

Screening data from PubChem BioAssay.

Only part of the results is shown (hit frequency here may not be typical).
